Compound activity: PubChem, several laboratories
ER stress rescue – protection against thapsigargin-triggered cell killing – 384-well, CSM14.1, ATP luminescence, primary screen (AID 1222); CSM14.1 thapsigargin-induced death rescue, ATP luminescence; higher % means a stronger effect; cellular ATP content (survival), % at 20 µM; hits with a dose series show EC50 in µM; 190,000 tested, under 10 active;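 active = EC50 below 50 µM in the dose-response confirmation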;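 also: death triggered by thapsigargin at about 15 µM added after 2 h compound pretreatment; cell ATP read after overnight thapsigargin exposure of roughly 18 to 22 hours; normalized against plate controls of thapsigargin alone and 5% DMSO vehicle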
T cell modulator – modulates CD8 T cell binding to vesicles; 2C CD8+ T cell-vesicle binding, flow cytometry; stronger effect = lower value; calls only at 7 µM; hit rate 0.068% among 330,000;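 active = response, share of CD8 T cells binding vesicles, and their 90th percentile fluorescence all below set limits, cut at about 80% in these data, passing the limit was not always enough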
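Benchmarks: naked versus QL9-loaded vesicles / Assay system: purified 2C TCR transgenic mouse naive CD8+ T cells / Technique: high-throughput flow cytometry with anti-B7-1 and anti-CD8 staining / Timing: Cell–vesicle co-incubation 1.5 h at 37 °C, staining 20 min on ice / Read-out: percent CD8+ FL2 mean versus row control / Probe or stimulus: QL9-loaded Drosophila micro-vesicles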
Hep lipid drop – hepatic lipid droplet formation modulation; AML12 mouse hepatocytes, oleate lipid droplets, BODIPY imaging; inhibition, % at 6.5 µM; hit rate 0.4% among 240,000;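 active = lipid droplet intensity inhibited by at least 50%, with more than 500 cells counted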
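Technique: fluorescence imaging, 20x objective, two fields per well / Assay system: AML12 hepatocytes (mouse) / Measure: % inhibition of lipid droplet signal / Doses: 6.5 µM single-point dosing / Incubation: overnight exposure / Reagent: 100 µM oleic acid challenge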
Insulin prom up – MIN6 insulin promoter up-regulation | MIN6 insulin promoter-GFP reporter, high-content imaging; stronger effect = higher value | hit rate 0.3% among 190,000 | z-score at 5 µM;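 active = z-score above 3 at 5 µM with at least 500 cells counted in the well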
Autophagy HCS – modulators of autophagy; MEF GFP-LC3 puncta imaging; test concentration mostly 10 µM; calls only at 10 µM (by protocol); hit rate 0.98% among 190,000; AID 463193;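 active = percentage of spot-positive cells more than 3 SD above its plate mean, without a fluorescence outlier flag or 80% toxicity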;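 also: spot-positive cell cutoff set from DMSO-treated cells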
Dynein cargo inh – dynein cargo transport inhibition | 3617.4 mouse cells, GR-EGFP nuclear translocation imaging; test concentration mostly 20 µM; stimulated with dexamethasone, 1 µM; stronger effect = lower value | z-score, hits read low | hit rate 0.47% among 220,000 | AID 1381;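 active = plate z-score of nuclear minus cytoplasmic receptor signal below a set negative limit, without overly bright fluorescence or cell loss, cut at about -3.5 in these data, passing the limit was not always enough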;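 also: z-score of nuclear minus cytoplasmic ring GR-EGFP intensity difference per well; some compounds called inactive have numbers as strong as hits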
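Buffer or medium: tetracycline-free induction medium containing charcoal-stripped FBS / Reagent: dexamethasone agonist, 1.0 µM final, for 30 min / Technique: automated 10x imaging of fixed Hoechst-stained cells / Times: induction 48 h, compound 1 h, agonist 30 min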
MT stabilizer – microtubule stabilization, imaging screen; HeLa tubulin immunostaining HCS, 24 h; share of cells brighter than vehicle mean+2SD; AID 2205; hit rate 0.83% among 200,000; % tubulin-high responders, % at 10 µM;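 active = plate Z-score above 3 for both tubulin-high and condensed-nucleus cell shares, with cell loss under 80%, at 10 µM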;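 also: anti alpha tubulin signal scored within the nucleus-defined area of each cell; some results filed as inactive read as strong as hits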
PhoP inhibition – PhoP-dependent GFP reporter repression – Salmonella Typhimurium, primary screen (AID 1863). S. Typhimurium PhoP-regulated promoter GFP reporter, 4 h; higher % means a stronger effect. inhibition, % at 50 µM, or IC50 in µM where a hit was titrated. hit rate 0.16% among 300,000;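 active = inhibition over 29.93%, a cutoff 3 SD above the screen mean, later confirmed by dose response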;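 also: 0% = low Mg2+ inducing control and 100% = high Mg2+ repressing control; strong numbers were not always called active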
Dynein cargo inh cytoplasmic EGFP – also measured in Dynein cargo inh; calls as there; z-score; measured here: cytoplasmic GR-EGFP intensity; stronger effect = higher value
Dynein cargo inh nuclear GR-EGFP – also measured in Dynein cargo inh; calls as there; z-score; measured here: nuclear GR-EGFP intensity;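 lower value marks the stronger effect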
Dynein cargo inh cell count – further read-out of Dynein cargo inh, marked with its call; z-score; measured here: cell count per field
Insulin prom up cell count – further read-out of Insulin prom up, marked with its call; cell count; measured here: cytotoxicity, nuclei count;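 total cells summed across four imaged fields per well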
Hep lipid drop cells 6.5 µM – also measured in Hep lipid drop; calls as there; cell count; measured here: cell count, cytotoxicity flag;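 cells counted across two imaged fields per well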
T cell modulator vesicle-bound % – recorded beside T cell modulator, whose call it bears; double positive events, %; measured here: CD8+ vesicle-bound cell fraction;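 binding gate set so that unloaded-vesicle control wells show 10% double positive cells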
MT stabilizer Hoechst-high % – second read-out of MT stabilizer, no call of its own (marks repeat the call); % Hoechst-high responders; measured here: nuclear condensation Hoechst responders;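 share of cells brighter than vehicle mean plus two SD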
MT stabilizer cytotoxicity % – further read-out of MT stabilizer, marked with its call; toxicity, %; measured here: cytotoxicity by cell density;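 0% = mean cell density of plate MIN control wells and 100% = no cells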
Autophagy HCS cell loss 18 h – recorded beside Autophagy HCS, whose call it bears; toxicity, %; measured here: cell loss, nuclei count;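 cell loss after 18 h compound exposure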
The depositor's hits bear a star; i = inactive; · = not tested or not shown. A portion of the library, so the mix of outcomes need not match the whole.

SMILES | ER stress rescue | T cell modulator | T cell modulator vesicle-bound % | Hep lipid drop | Insulin prom up | Insulin prom up cell count | Autophagy HCS | Autophagy HCS cell loss 18 h | Dynein cargo inh | Dynein cargo inh cytoplasmic EGFP | Dynein cargo inh nuclear GR-EGFP | Dynein cargo inh cell count | MT stabilizer | MT stabilizer Hoechst-high % | MT stabilizer cytotoxicity % | PhoP inhibition | others
O=[N+]([O-])c1ccc2nccn2c1 | 1.2% | i | 30 | · | 0.66 | 1658 | i | -28 | -0.34 | -0.24 | 0.49 | 1.1 | 2.6 | 2.0 | 5.9 | 5%
Cc1cccc(-c2nnc(SCC(=O)NCc3ccc4c(c3)OCO4)n2C)c1 | 0.6% | i | 41 | · | 0.3 | 1477 | i | 4 | 0.08 | 0.6 | 0.27 | -0.53 | 2.9 | 1.9 | 11 | -4%
O=S(=O)(NCCSCc1ccc(Cl)cc1Cl)c1ccc2c(c1)OCCO2 | -0.8% | i | 18 | · | -0.25 | 1290 | i | 30 | 0.28 | -0.16 | -0.21 | 0.13 | 2.7 | 2.2 | 7.2 | 3%
COC(=O)N(C)c1ccccc1C(=O)N1CCOCC1 | 0.8% | i | 21 | · | -0.29 | 1476 | i | 4 | -0.75 | -0.4 | -0.19 | -0.016 | 3.7 | 1.6 | 3.9 | -2%
CCOC(=O)c1c(C)[nH]c2c1cc(O)c1ccccc12 | -2.2% | · | · | · | 1.6 | 1301 | i | -1 | 0.4 | -0.25 | -0.71 | 0.015 | 2.3 | 1.3 | 1.4 | 6%
CCCc1nn(-c2ccccc2)c2c1C(c1cccs1)C(C#N)=C(N)O2 (centres undefined) | 4.1% | i | 15 | · | 0.13 | 1542 | i | -7 | -0.38 | 0.062 | -0.76 | -0.4 | 2.1 | 2.5 | 12 | -3%
Nc1cccnc1Sc1ccc(Cl)cc1 | -1.0% | i | 19 | · | -0.76 | 1607 | i | 15 | -0.31 | -0.21 | 0.24 | 0.63 | 2.8 | 1.1 | 5.0 | -11%
COc1c(Cl)cnn(-c2ccc(C)cc2)c1=O | -1.4% | i | 7 | -1 | 0.45 | 1816 | i | -1 | 0.95 | 0.012 | -0.094 | -1.6 | 1.6 | 2.1 | 2.0 | 32% | Hep lipid drop cells 6.5 µM=642
CCOC(=O)C1=C(C)NC(=O)NC1c1ccoc1 (centres undefined) | 0.5% | i | 37 | · | -0.16 | 1442 | i | 0 | -0.55 | -0.41 | -0.23 | 0.68 | 3.2 | 2.3 | 18 | 0%
CCOC(=O)NC(NC(=O)OCC)C(=O)c1ccccc1 | 0.4% | i | 8 | · | 1.7 | 1631 | i | 12 | 0.15 | -0.31 | 0.15 | 0.11 | 3.6 | 2.9 | 6.2 | -5%

Reprinted from the entries so far (seven entries):
SMILES | ER stress rescue | T cell modulator | T cell modulator vesicle-bound % | Hep lipid drop | Insulin prom up | Insulin prom up cell count | Autophagy HCS | Autophagy HCS cell loss 18 h | Dynein cargo inh | Dynein cargo inh cytoplasmic EGFP | Dynein cargo inh nuclear GR-EGFP | Dynein cargo inh cell count | MT stabilizer | MT stabilizer Hoechst-high % | MT stabilizer cytotoxicity % | PhoP inhibition | others
COC(=O)N(C)c1ccccc1C(=O)N1CCOCC1 | 0.8% | i | 21 | · | -0.29 | 1476 | i | 4 | -0.75 | -0.4 | -0.19 | -0.016 | 3.7 | 1.6 | 3.9 | -2%
CCOC(=O)c1c(C)[nH]c2c1cc(O)c1ccccc12 | -2.2% | · | · | · | 1.6 | 1301 | i | -1 | 0.4 | -0.25 | -0.71 | 0.015 | 2.3 | 1.3 | 1.4 | 6%
CCCc1nn(-c2ccccc2)c2c1C(c1cccs1)C(C#N)=C(N)O2 (centres undefined) | 4.1% | i | 15 | · | 0.13 | 1542 | i | -7 | -0.38 | 0.062 | -0.76 | -0.4 | 2.1 | 2.5 | 12 | -3%
Nc1cccnc1Sc1ccc(Cl)cc1 | -1.0% | i | 19 | · | -0.76 | 1607 | i | 15 | -0.31 | -0.21 | 0.24 | 0.63 | 2.8 | 1.1 | 5.0 | -11%
COc1c(Cl)cnn(-c2ccc(C)cc2)c1=O | -1.4% | i | 7 | -1 | 0.45 | 1816 | i | -1 | 0.95 | 0.012 | -0.094 | -1.6 | 1.6 | 2.1 | 2.0 | 32% | Hep lipid drop cells 6.5 µM=642
CCOC(=O)C1=C(C)NC(=O)NC1c1ccoc1 (centres undefined) | 0.5% | i | 37 | · | -0.16 | 1442 | i | 0 | -0.55 | -0.41 | -0.23 | 0.68 | 3.2 | 2.3 | 18 | 0%
CCOC(=O)NC(NC(=O)OCC)C(=O)c1ccccc1 | 0.4% | i | 8 | · | 1.7 | 1631 | i | 12 | 0.15 | -0.31 | 0.15 | 0.11 | 3.6 | 2.9 | 6.2 | -5%

(list continues)
SMILES | ER stress rescue | T cell modulator | T cell modulator vesicle-bound % | Hep lipid drop | Insulin prom up | Insulin prom up cell count | Autophagy HCS | Autophagy HCS cell loss 18 h | Dynein cargo inh | Dynein cargo inh cytoplasmic EGFP | Dynein cargo inh nuclear GR-EGFP | Dynein cargo inh cell count | MT stabilizer | MT stabilizer Hoechst-high % | MT stabilizer cytotoxicity % | PhoP inhibition | others
CN(C)S(=O)(=O)Oc1ccsc1C(=O)Nc1cccc(Cl)c1 | -3.3% | i | 39 | · | 2.3 | 1506 | i | 2 | 1.4 | -0.17 | 0.18 | -0.97 | 1.9 | 2.1 | 11 | 18%
CCC(C)n1c(C)nc2c(c1=O)c1nc3ccccc3nc1n2CCC1=CCCCC1 (centres undefined) | 0.2% | i | 54 | · | -0.12 | 838 | i | 0 | -1.3 | -0.19 | -1.1 | 1 | 2.6 | 0.9 | 4.2 | -4%
O=S(=O)(NC1CCCCC1NCc1ccco1)c1ccc(Cl)cc1 (centres undefined) | -0.1% | i | 7 | · | -0.74 | 1273 | i | -2 | 0.088 | -0.23 | 0.21 | 0.46 | 2.5 | 2.5 | 6.9 | 7%
CN1C(=O)CC(NNC(=O)c2ccc(Cl)cc2)C1=O (centres undefined) | -0.7% | i | 12 | · | 0.6 | 1726 | i | -2 | 0.89 | -0.15 | -0.081 | -1.3 | 2.6 | 1.9 | 4.9 | 15%
Cc1ccc(NC2=C(C(=O)c3ccccc3)N(C)S(=O)(=O)c3ccccc32)cc1 | 3.1% | i | 43 | · | -0.08 | 1499 | i | 3 | 0.47 | -0.13 | 0.23 | -0.68 | 1.5 | 1.1 | 1.1 | -9%
O=C(Nc1ccc(Cc2ccncc2)cc1)c1ccc(S(=O)(=O)N2CCOCC2)cc1 | -0.8% | i | 48 | · | -0.72 | 1349 | i | -9 | -0.5 | -0.19 | -0.25 | 0.62 | 5.1 | 3.0 | 1.6 | 6%
CC(=O)Nc1ccc(NCN2C(=O)C3C4CCC(C4)C3C2=O)cc1 (centres undefined) | -0.2% | i | 17 | · | · | · | i | 26 | 0.39 | -0.17 | -0.5 | -0.061 | 2.9 | 2.3 | 6.6 | -6%
O=C(Nc1ccc(F)cc1)Nc1nnc(-c2ccncc2)s1 | -1.8% | i | 12 | · | -0.51 | 1594 | i | -20 | 0.075 | -0.21 | 0.63 | 0.3 | 3.0 | 1.7 | 1.9 | 4%
COC(=O)c1cn(NC(=O)c2cccc(OC)c2)c(=O)c2ccccc12 | 2.2% | i | 61 | · | -1.1 | 1544 | i | -4 | 0.96 | -0.22 | 0.6 | -0.36 | 3.8 | 1.4 | 1.9 | -2%
COc1ccc(-c2[nH]c(-c3ccc(C(=O)O)cc3)nc2-c2ccccc2)cc1 | 0.1% | i | 51 | · | -0.05 | 1641 | i | 1 | 0.14 | -0.2 | -0.15 | 0.19 | 1.0 | 1.8 | 8.9 | -24%
Cc1cnc(C(=O)OCC(=O)N(C(C)C)C(C)C)cn1 | -1.2% | i | 18 | · | 0.21 | 1281 | i | -2 | 1.4 | -0.15 | -0.55 | 0.93 | 2.0 | 2.1 | 5.5 | 7%
COc1ccc(NC(=O)CCOc2ccccc2)cc1 | 0.5% | i | 43 | · | -0.06 | 1328 | i | -5 | 1.5 | -0.19 | -0.41 | -0.76 | 3.1 | 1.8 | 0.5 | -6%
Cc1nnc(SCc2ccc(F)cc2Cl)s1 | -0.3% | i | 14 | · | 0.08 | 1550 | i | -3 | 1 | -0.28 | 0.6 | -0.22 | 2.3 | 1.1 | 3.1 | 7%
Cc1sc2ncnc(N3CCN(c4ncccn4)CC3)c2c1C | 2.3% | i | 51 | · | -1.5 | 1203 | i | -5 | -0.64 | -0.35 | -0.19 | 0.94 | 5.1 | 1.9 | 9.2 | 14%
c1ccc(-c2noc(-c3ccc4ccccc4c3)n2)cc1 | 0.1% | i | 37 | · | -0.78 | 1631 | i | 9 | 0.035 | 0.0029 | 0.2 | -0.48 | 4.6 | 3.3 | 7.4 | -7%
Cc1ccc(Nc2cc(=O)n(C3CCCCC3)c(=O)[nH]2)cc1C | 3.0% | i | 32 | · | 0.07 | 1585 | i | 7 | 0.85 | -0.27 | 0.54 | -0.23 | 5.4 | 2.3 | 7.8 | 0%
CCOCCCn1c(=N)c(C(=O)NCc2ccc3c(c2)OCO3)cc2c(=O)n3cccc(C)c3nc21 | 0.1% | i | 34 | · | -4 | 1105 | i | -8 | 0.0048 | -0.087 | 0.05 | -0.61 | 1.4 | 1.1 | 1.6 | 18%
O=C(OCc1ccc(C(=O)c2ccccc2)cc1)c1cccc(-c2nnc(-c3ccccc3)o2)c1 | -0.8% | i | 41 | · | 0.02 | 1613 | i | 10 | 2 | -0.23 | 0.64 | -0.82 | 0.8 | 1.8 | 8.9 | 4%
